P. yoelii liver – Plasmodium liver-stage growth inhibition, dose response, imaging, Malaria Box, P. yoelii, HepG2-A16-CD81EGFP (AID 602156). P. yoelii liver stage in HepG2-A16-CD81EGFP, imaging; first-round cut-off not given here. calls after a first round at 10 µM; hits with a dose series show IC50 in µM. 5,700 tested, 4.8% active; in the data active = a potency from the dose series;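 note: infected cells exposed to compound for 48 hours before fixation; stained parasite area by imaging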
Starred values were filed as active, the others as inactive. Not all compounds are listed; rates above refer to the full screens.

For CC(=O)Nc1ccc(S(=O)(=O)Nc2ccccc2[N+](=O)[O-])cc1 the results were P. yoelii liver inactive.
For O=c1c(-c2ccc(Cl)cc2Cl)c(C(F)(F)F)oc2c(CN3CCCCC3)c(O)ccc12 the results were P. yoelii liver inactive.
`N#Cc1ccc(-c2cnc(N)c(-c3ccc(C(N)=O)cc3)n2)cc1` gave P. yoelii liver inactive.
Screening CCOC(=O)c1[nH]c(C)c(Cc2ccc(OCC)cc2)c1C returned P. yoelii liver inactive.
Cc1cc(Nc2cccc(Cl)c2)nc2ccc(NC(=O)c3cccnc3)cc12 was read as P. yoelii liver inactive.
CCOC(=O)C1=C(C)NC2=C(C(=O)CC(C)(C)C2)C1c1ccccn1 (centres undefined) was read as P. yoelii liver inactive.
Screening O=C(Nc1ccc(F)c(Cl)c1)c1c2c(nc3ccccc13)CCN(Cc1ccccc1)C2 returned P. yoelii liver inactive.
COc1ccc(C(=O)/C(C#N)=C/NC2CCN(Cc3ccccc3)CC2)cc1 was read as P. yoelii liver inactive.
For CN(C)c1ccc(/C=C/C(=O)NC(=O)c2ccccc2O)cc1 the results were P. yoelii liver inactive.
For CCOC(=O)c1c(NC(C)=O)sc2c(O)c(CNC3CCCCC3)ccc12 the results were P. yoelii liver inactive.
For N#Cc1nc(-c2ccccc2)c(-c2ccc(-c3nc(C#N)c(C#N)nc3-c3ccccc3)cc2)nc1C#N the results were P. yoelii liver inactive.
Screening COC(=O)[C@@H]1C[C@@H](NC(=O)c2ccc(OC)cc2OC)CN1Cc1cc(C)ccc1C returned P. yoelii liver inactive.
For N=c1n(CCN2CCCC2)c2ccccc2n1CC(O)c1ccc(Cl)c(Cl)c1 (centres undefined) the results were P. yoelii liver inactive.
CCCC(C(=O)OCC)C(C)=NNc1ccccc1[N+](=O)[O-] (centres undefined) was read as P. yoelii liver inactive.
`COc1ccc(-c2c[n+](CC(=O)c3cccc(OC)c3)c3n2CCC3)cc1` gave P. yoelii liver inactive.

Ordered by count of non-hydrogen atoms (high to low): part of the list above
Screening COC(=O)[C@@H]1C[C@@H](NC(=O)c2ccc(OC)cc2OC)CN1Cc1cc(C)ccc1C returned P. yoelii liver inactive.
COc1ccc(C(=O)/C(C#N)=C/NC2CCN(Cc3ccccc3)CC2)cc1 was read as P. yoelii liver inactive.
CCOC(=O)C1=C(C)NC2=C(C(=O)CC(C)(C)C2)C1c1ccccn1 (centres undefined) was read as P. yoelii liver inactive.
For CC(=O)Nc1ccc(S(=O)(=O)Nc2ccccc2[N+](=O)[O-])cc1 the results were P. yoelii liver inactive.

The list continues.
Screening CC(=O)NC1=NN(C(C)=O)C(C)(c2ccc([N+](=O)[O-])cc2)S1 (centres undefined) returned P. yoelii liver inactive.
`Cc1cc2nc3ccc(N(C)C)cc3[n+](-c3ccccc3)c2cc1N` gave P. yoelii liver inactive.
`COc1ccc(C(NC(=O)COc2ccccc2)c2cc(Cl)c3cccnc3c2O)cc1` (centres undefined) gave P. yoelii liver inactive.
For NC(=O)c1ccc2[nH]c3c(c2c1)CCCC3 the results were P. yoelii liver inactive.
`CCOC(=O)NN=C1C=C2C=CC3C(CC[C@@]4(C)C3CC3CCCCC34C(C)=O)[C@@]2(C)CC1` (some centres undefined) gave P. yoelii liver inactive.
`CCOC(=O)c1c(NC(=O)CSc2nnc(CNC(=O)c3cccs3)n2-c2ccccc2OC)sc2c1CCC2` gave P. yoelii liver inactive.
O=[N+]([O-])c1ccc(C2OC3C(c4ccc(Cl)cc4)=Nc4ccccc4N3C2c2ccc([N+](=O)[O-])cc2)cc1 (centres undefined) was read as P. yoelii liver inactive.
`O=c1ccc2cc(Cl)c(O)c(Cl)c2o1` gave P. yoelii liver inactive.
Screening COc1ccc(CNC(=O)C(Cc2c[nH]c3ccccc23)N2CCS(=O)(=O)CC2)cc1 (centres undefined) returned P. yoelii liver inactive.
For COc1cc2c(Nc3ccc(Br)cc3F)ncnc2cc1OCC1CCN(C)CC1 the results were P. yoelii liver inactive.
Screening COc1ccc(C(=O)C(C)[n+]2cccc3ccc4cccnc4c32)cc1 (centres undefined) returned P. yoelii liver inactive.
`O=C(CS(=O)(=O)c1ccc(C(F)(F)F)cn1)NNS(=O)(=O)c1ccc(Cl)cc1` gave P. yoelii liver inactive.
`Fc1ccc2[nH]c3c(NCCN4CCCCC4)ncnc3c2c1` gave P. yoelii liver inactive.
COc1ccc(CCN(Cc2ccc(Cl)cc2)S(=O)(=O)c2ccc(S(N)(=O)=O)cc2)cc1OC was read as P. yoelii liver inactive.
For Cc1ccc(N=C2NC(=O)C(=Cc3ccc(N(C)C)cc3)S2)cc1 the results were P. yoelii liver inactive.

Copied from the entries so far, four compounds:
`O=C(CS(=O)(=O)c1ccc(C(F)(F)F)cn1)NNS(=O)(=O)c1ccc(Cl)cc1` gave P. yoelii liver inactive.
`Fc1ccc2[nH]c3c(NCCN4CCCCC4)ncnc3c2c1` gave P. yoelii liver inactive.
COc1ccc(CCN(Cc2ccc(Cl)cc2)S(=O)(=O)c2ccc(S(N)(=O)=O)cc2)cc1OC was read as P. yoelii liver inactive.
For Cc1ccc(N=C2NC(=O)C(=Cc3ccc(N(C)C)cc3)S2)cc1 the results were P. yoelii liver inactive.

The results go on:
Screening CCOC(=O)N1CCC(N2C(=O)c3ccccc3C2Nc2ccc(OCC)cc2)CC1 (centres undefined) returned P. yoelii liver inactive.
Screening Cc1noc(C)c1S(=O)(=O)N(Cc1ccccc1)CC(O)CN1CCC(NC(=O)Cc2cccs2)C1 (centres undefined) returned P. yoelii liver inactive.
For CSc1nccc(-c2cc(F)cc3c2OC(CNC(=O)C2CC(=O)c4ccccc42)C3)n1 (centres undefined) the results were P. yoelii liver inactive.
`CCOC(=O)c1cnc2cc(Cl)c(OC)cc2c1NCCCN1CCOCC1` gave P. yoelii liver inactive.
`CC(C)CC(N)C(=O)N1CCn2c(nc(-c3ccccc3)c2Nc2ccc3c(c2)OCO3)C1` (centres undefined) gave P. yoelii liver 0.19µM*.
For C(=C1\C(c2ccccc2)=Nc2ccccc21)/c1c(-c2ccccc2)[nH]c2ccccc12 the results were P. yoelii liver inactive.
CN(C)c1ccc(/C=C/C(=O)NC(=O)c2ccccc2OC(=O)c2ccccc2)cc1 was read as P. yoelii liver inactive.
Screening CCN1C(=Cc2cccc[n+]2C)Sc2ccc(OC)cc21 returned P. yoelii liver inactive.
`COc1cc(C(=O)N2N=C(c3c(-c4ccccc4)c4cc(Br)ccc4[nH]c3=O)CC2c2cccc([N+](=O)[O-])c2)cc(OC)c1OC` (centres undefined) gave P. yoelii liver 0.43µM*.
`COc1cccc(C2CC3(CC(C)(C)NC(=S)N3)Oc3cc(OC(C)=O)c(Cl)cc32)c1` (centres undefined) gave P. yoelii liver inactive.
Screening O=C(Nc1ccc(OC(F)(F)F)cc1)c1cnn2c1NC(c1cccs1)CC2C(F)(F)F (centres undefined) returned P. yoelii liver inactive.
`O=C(c1ccccc1)N1CCc2nc(Cc3ccc(F)cc3Cl)sc2C1` gave P. yoelii liver inactive.
Screening Cc1nnc2sc(SCc3ccc([N+](=O)[O-])cc3)nn2c1=O returned P. yoelii liver inactive.
Screening CCCCCCCCCC(=O)N1CCN(C(CC)c2nc3ccccc3c(=O)n2C)CC1 (centres undefined) returned P. yoelii liver inactive.
CCCn1c(C=NNc2nc3ccccc3[nH]2)nc2ccccc21 was read as P. yoelii liver inactive.

Of the compounds above, these have a CF3 group:
For O=c1c(-c2ccc(Cl)cc2Cl)c(C(F)(F)F)oc2c(CN3CCCCC3)c(O)ccc12 the results were P. yoelii liver inactive.
`O=C(CS(=O)(=O)c1ccc(C(F)(F)F)cn1)NNS(=O)(=O)c1ccc(Cl)cc1` gave P. yoelii liver inactive.
Screening O=C(Nc1ccc(OC(F)(F)F)cc1)c1cnn2c1NC(c1cccs1)CC2C(F)(F)F (centres undefined) returned P. yoelii liver inactive.

Other records follow:
Screening COc1ccc(N2C(=O)C3C(C2=O)C2(c4ccccc4)C(=O)C3(c3ccccc3)C(c3ccc4c(c3)OCO4)=C2c2ccc3c(c2)OCO3)c([N+](=O)[O-])c1 (centres undefined) returned P. yoelii liver inactive.
`Nc1ccc(-c2nc3ccc(-c4nc5ccc(N)cc5[nH]4)cc3[nH]2)cc1` gave P. yoelii liver inactive.
`CCCCC(CC)C(=O)NCCCCNc1ccnc2cc(Cl)ccc12` (centres undefined) gave P. yoelii liver inactive.
COc1ccc(C2C(C(C)=O)=C(O)C(=O)N2CCCn2ccnc2)c(OC)c1 (centres undefined) was read as P. yoelii liver inactive.
For CC(=O)Nc1ccc(N2C(=O)CSC2c2ccc(Br)cc2)cc1 (centres undefined) the results were P. yoelii liver inactive.
For COCCOC(=O)C1=C(C)NC2=C(C(=O)CC(c3ccc(OC)c(OC)c3)C2)C1c1ccccc1C (centres undefined) the results were P. yoelii liver inactive.
C1CCC(NP2(NC3CCCCC3)=NP(NC3CCCCC3)(NC3CCCCC3)=NP(NC3CCCCC3)(NC3CCCCC3)=N2)CC1 was read as P. yoelii liver 0.019µM*.
Screening CCN(CC)CCCC(C)Nc1c2ccc(Cl)cc2nc2ccc(OC)nc12 (centres undefined) returned P. yoelii liver inactive.
`CC(=NNc1nc2ccccc2s1)c1ccc([N+](=O)[O-])cc1` gave P. yoelii liver inactive.
For Fc1ccc(-c2c[n+]3c(n2-c2ccccc2)SCC3)cc1 the results were P. yoelii liver inactive.
COc1nncc(-c2cnnc(SC)n2)n1 was read as P. yoelii liver inactive.
Screening CCCCCN(C(=O)c1ccc(Cl)cc1)C(CC)c1nc2ccccc2c(=O)n1-c1ccccc1OC (centres undefined) returned P. yoelii liver inactive.
`CC1CCCN(c2ccc(C(=O)NC3CC3)cc2[N+](=O)[O-])C1` (centres undefined) gave P. yoelii liver inactive.
For CC[n+]1c(/C=C/c2ccc(N(C)C)cc2)sc2cc(NC(C)=O)ccc21 the results were P. yoelii liver inactive.
`O=C(Nc1cc(C(F)(F)F)ccc1OCc1ccccc1)c1ccccc1O` gave P. yoelii liver inactive.
Screening COc1ccc(C(=O)C(C#N)=CNC2CCN(Cc3ccccc3)CC2)cc1 returned P. yoelii liver inactive.
For COC(=O)C1=C(C)NC2=C(C(=O)CC(c3ccc(OC)cc3)C2)C1c1ccc(F)cc1 (centres undefined) the results were P. yoelii liver inactive.
Screening C=CCOc1cccc(/C=C2/N=C(C)C(C(=O)OCC)=C2O)c1 returned P. yoelii liver inactive.
C=Cc1cc2ccccc2c2cc3c(cc12)C[N+](C)(C)C3 was read as P. yoelii liver inactive.
Screening O=C(Cn1ccc(=NCc2ccccc2)cc1)c1ccc(I)cc1 returned P. yoelii liver 0.82µM*.
`Cc1ccc(-n2c(-c3ccccc3)cc(C=NNC(=O)c3cccc(-n4c(C)ccc4C)c3)c2-c2ccccc2)cc1` gave P. yoelii liver 0.048µM*.
`O=C(COc1ccc(Cl)cc1)NCCCCNc1ccnc2cc(Cl)ccc12` gave P. yoelii liver inactive.
Screening CCOc1ccc(C(=O)Nc2cccc(-c3nc4cc(C)ccc4o3)c2C)cc1 returned P. yoelii liver inactive.
`COc1ccc(Br)cc1CNC(=O)CCCN1C(=O)COc2ccc(C)cc21` gave P. yoelii liver inactive.
Cc1ccc(C2CC(C(F)(F)F)n3ncc(C(=O)Nc4ccc(OC(F)(F)F)cc4)c3N2)cc1 (centres undefined) was read as P. yoelii liver inactive.
For CC(=O)Nc1ccc(S(=O)(=O)N(C)CC(=O)NN=Cc2ccncc2)cc1 the results were P. yoelii liver inactive.
For CCN(CC)CCN1C(=O)c2ccccc2NC1c1ccc(Cl)cc1 (centres undefined) the results were P. yoelii liver inactive.
For CN1c2ccccc2N(C)C1c1ccc2c(c1)OCO2 the results were P. yoelii liver inactive.
Screening COc1ccc(CNc2ncnc3c2[nH]c2cc(OC)ccc23)cc1 returned P. yoelii liver inactive.
`Cc1cc2c(cc1S(=O)(=O)N1CCCCC1C)OCC(=O)N2` (centres undefined) gave P. yoelii liver inactive.
Screening COC(=O)c1c(NC(=O)c2cc3ccccc3oc2=O)sc2c1CCC(C)C2 (centres undefined) returned P. yoelii liver inactive.
`COc1ccc2nc(C)cc(Nc3ccc(Br)cc3)c2c1` gave P. yoelii liver inactive.
For O=C(Nc1ccc(-n2cnnn2)cc1)C1CCN(Cc2cc3ccccc3o2)CC1 the results were P. yoelii liver inactive.
For COc1ccc([N+](=O)[O-])cc1C=NNc1nc(Nc2ccc([N+](=O)[O-])cc2)nc(N2CCN(C)CC2)n1 the results were P. yoelii liver inactive.
O=S(=O)(NCCCCNc1ccnc2cc(Cl)ccc12)c1ccc2ccccc2c1 was read as P. yoelii liver inactive.
CCOc1ccc(C=C2SC(=Nc3ccccc3)NC2=O)cc1OC was read as P. yoelii liver inactive.
CC(C)CNC(=O)c1cnc(NCCCn2ccnc2)nc1NCC1CCCCC1 was read as P. yoelii liver inactive.
For Cc1cc(NS(=O)(=O)c2ccc(N=Cc3ccc(C#N)cc3)cc2)no1 the results were P. yoelii liver inactive.
Screening CCCOC(=O)C1=C(C)NC2=C(C(=O)CC(c3ccc(OC)c(OC)c3)C2)C1c1ccccc1C (centres undefined) returned P. yoelii liver inactive.
Cc1ccc(-c2nc3cc(NC(=O)c4ccc(Cl)cc4Cl)ccc3o2)cc1 was read as P. yoelii liver inactive.
For CC1=C(C(=O)OC(C)C)C(c2ccc([N+](=O)[O-])cc2)C2=C(CCCC2=O)N1 (centres undefined) the results were P. yoelii liver inactive.
For CCN(CC)c1ccc(NCc2ccc3c(c2)OCO3)cc1 the results were P. yoelii liver inactive.
`CC(C)CC(=O)Nc1nnc(-c2ccc(Br)cc2)s1` gave P. yoelii liver inactive.
`CCC(C)N(CCC(=O)N1CCN(Cc2ccccc2)CC1)C(=O)Nc1cccc(Cl)c1Cl` (centres undefined) gave P. yoelii liver inactive.
NC1=NC(=O)/C(=C/C=C/c2ccc([N+](=O)[O-])o2)S1 was read as P. yoelii liver inactive.
For COc1ccc(C(OCC(=O)N2CCSCC2)c2ccncc2Cl)cc1 (centres undefined) the results were P. yoelii liver inactive.
